Vaccinia Venus: qHTS for Stage-Specific Inhibitors of Vaccinia Orthopoxvirus: Venus Reporter Primary qHTS. Potency, µM (top dose mostly 36.5 µM), for inactives: top-dose activity change, negative = inhibition, actives largely listed as inhibitors. actives 0.46% (n = 330,000). Vaccinia virus Venus reporter expression, fluorescence; active means well fitted inhibition curve with a large enough effect; inconclusive means small, poorly fitted or top-dose-only effect; inactive means no such curve, though single readings can be large or run the other way; tested in A549 cells; further: nearly all actives have a fitted effect of over 30% in size; inactives centre near -10
Vaccinia mCherry: qHTS for Stage-Specific Inhibitors of Vaccinia Orthopoxvirus: mCherry Reporter Primary qHTS. Vaccinia virus mCherry reporter infection, fluorescence; about a quarter of the inactives have no number. Potency, µM (series often up to 36.5 µM), for inactives: at the top dose activity change, negative = inhibition, hits mostly inhibitors. actives 0.63% (n = 310,000). AID 720579, 2013; active = well fitted inhibition curve with a large enough effect; inconclusive = small, poorly fitted or top-dose-only effect; inactive = no such curve, though single readings can be large or run the other way; tested in A549 cells; further: nearly all actives have a fitted effect of over 35% in size; inactives centre near -10
Starred values were filed as active, the others as inactive; & = joins results of further samples; [ ] = dose if it differs, or a comment. On the % scale 0 is the no-effect control and ±100 the full control effect; potency means the concentration at half of the fitted maximal effect.

Start of the data: the first nine records, ahead of the listing:
How did CCNS(=O)(=O)c1c(C)cc(N2CCCC2=O)cc1C do in these assays?
Vaccinia Venus: -15%; Vaccinia mCherry: inactive

What do the screens show for `CCCCN(C)CCCNC(=O)c1cccc(N2CCCC2=O)c1`?
Vaccinia Venus: -13%; Vaccinia mCherry: inactive

Results for CC1Nc2ccc(C(=O)NC3CCCCC3)cc2NC1=O (stereo not given) ?
Vaccinia Venus: 9%; Vaccinia mCherry: 1%

What do the screens show for `CN1CCN(C(=O)COc2ccc(S(=O)(=O)N(C)Cc3ccccc3)cc2)CC1`?
Vaccinia Venus: -15%; Vaccinia mCherry: inactive

What do the screens show for `CC1=C(C(=O)N2CCOCC2)CC(CC(=O)NCc2cccs2)C(=O)N1Cc1ccccc1` (stereo not given)?
Vaccinia Venus: -9%; Vaccinia mCherry: 0%

What do the screens show for `Cc1cc(C(=O)N/N=C\c2ccc(COc3ccc([N+](=O)[O-])cc3)o2)ccc1[N+](=O)[O-]`?
Vaccinia Venus: -9%; Vaccinia mCherry: -9%

What do the screens show for `Cc1cc(C)n2ncc(C(=O)NCc3ccccc3)c2n1`?
Vaccinia Venus: -17%; Vaccinia mCherry: inconclusive

What do the screens show for `COc1cccc(CN(C(=O)c2cccc(OC)c2)C2CCS(=O)(=O)C2)c1` (stereo not given)?
Vaccinia Venus: -11%; Vaccinia mCherry: -8%

How did CCCCn1c(NCc2ccc3c(c2)OCO3)nc2ccccc21 do in these assays?
Vaccinia Venus: -29%; Vaccinia mCherry: -17%[1.46 µM]

The list itself, from the first entry:
How did CCNS(=O)(=O)c1c(C)cc(N2CCCC2=O)cc1C do in these assays?
Vaccinia Venus: -15%; Vaccinia mCherry: inactive

What do the screens show for `CCCCN(C)CCCNC(=O)c1cccc(N2CCCC2=O)c1`?
Vaccinia Venus: -13%; Vaccinia mCherry: inactive

Results for CC1Nc2ccc(C(=O)NC3CCCCC3)cc2NC1=O (stereo not given) ?
Vaccinia Venus: 9%; Vaccinia mCherry: 1%

What do the screens show for `CN1CCN(C(=O)COc2ccc(S(=O)(=O)N(C)Cc3ccccc3)cc2)CC1`?
Vaccinia Venus: -15%; Vaccinia mCherry: inactive

What do the screens show for `CC1=C(C(=O)N2CCOCC2)CC(CC(=O)NCc2cccs2)C(=O)N1Cc1ccccc1` (stereo not given)?
Vaccinia Venus: -9%; Vaccinia mCherry: 0%

What do the screens show for `Cc1cc(C(=O)N/N=C\c2ccc(COc3ccc([N+](=O)[O-])cc3)o2)ccc1[N+](=O)[O-]`?
Vaccinia Venus: -9%; Vaccinia mCherry: -9%

What do the screens show for `Cc1cc(C)n2ncc(C(=O)NCc3ccccc3)c2n1`?
Vaccinia Venus: -17%; Vaccinia mCherry: inconclusive

What do the screens show for `COc1cccc(CN(C(=O)c2cccc(OC)c2)C2CCS(=O)(=O)C2)c1` (stereo not given)?
Vaccinia Venus: -11%; Vaccinia mCherry: -8%

How did CCCCn1c(NCc2ccc3c(c2)OCO3)nc2ccccc21 do in these assays?
Vaccinia Venus: -29%; Vaccinia mCherry: -17%[1.46 µM]

What do the screens show for `Cc1cc(Br)ccc1SCC(=O)OCC(=O)Nc1ccccc1C#N`?
Vaccinia Venus: -11%; Vaccinia mCherry: -6%

How did CCCN(C(=O)CCOc1ccc(C(C)(C)C)cc1)c1c(N)n(Cc2ccccc2)c(=O)[nH]c1=O do in these assays?
Vaccinia Venus: -20%; Vaccinia mCherry: -7%

What do the screens show for `COc1ccc(Cc2nc3ccc(C(=O)N4CCCN(C=O)CC4)cc3o2)cc1`?
Vaccinia Venus: -17%[7.34 µM]; Vaccinia mCherry: inactive[7.34 µM]

What do the screens show for `CC(=O)Nc1ccc(NC(=O)CSc2nnc(-c3ccc(NS(C)(=O)=O)cc3)n2C)cc1C`?
Vaccinia Venus: -1%; Vaccinia mCherry: -15%

Results for COc1ccc(C2=NOC(Cn3nc(C(=O)NCc4cccs4)cc3-c3ccccc3)C2)cc1 (stereo not given) ?
Vaccinia Venus: -9%; Vaccinia mCherry: -11%

What do the screens show for `CN(C)c1ccc(C=NN2CCCCCC2)cc1`?
Vaccinia Venus: 5%; Vaccinia mCherry: inconclusive

What do the screens show for `COc1cc(-c2nc(S(=O)(=O)c3ccc(C)cc3)c(N3CCOCC3)o2)cc(OC)c1OC`?
Vaccinia Venus: -13%; Vaccinia mCherry: -17%

What do the screens show for `Cc1cc(C)cc(-n2c(N)c(C(=O)Nc3c(C)n(C)n(-c4ccccc4)c3=O)c3nc4ccccc4nc32)c1`?
Vaccinia Venus: -14%; Vaccinia mCherry: inconclusive

How did O=C(Nc1cc(C(F)(F)F)ccc1N1CCCCC1)c1ccco1 do in these assays?
Vaccinia Venus: -29%

Results for COc1ccc(NC(=O)c2cc3c(s2)-c2c(C)cccc2OC3)c(OC)c1 ?
Vaccinia Venus: -17%; Vaccinia mCherry: -18%

Results for Cc1ccc(NC(=O)Cc2n[nH]c(=S)n2C)cc1 ?
Vaccinia Venus: -9%; Vaccinia mCherry: -2%

How did O=C(c1ccc(Cl)c(NC2=NC3CS(=O)(=O)CC3S2)c1)N1CCN(c2ccc(F)cc2)CC1 (stereo not given) do in these assays?
Vaccinia Venus: 0%; Vaccinia mCherry: -14%

What do the screens show for `CCC(C)n1c(=S)[nH]c2c(sc3ccc([N+](=O)[O-])cc32)c1=O` (stereo not given)?
Vaccinia Venus: -6%; Vaccinia mCherry: -11%

What do the screens show for `Cn1c(COc2ccccc2)nnc1SCC(=O)NC1CCCC1`?
Vaccinia Venus: -15%; Vaccinia mCherry: inactive

How did OC[C@@H]1[C@@H](c2ccc(F)cc2)C(c2ccccc2)=NN1c1ccccc1 do in these assays?
Vaccinia Venus: inconclusive; Vaccinia mCherry: -13%

Results for O=C(COC(=O)C1CCCN1C(=O)C12CC3CC(CC(C3)C1)C2)c1ccc(Br)cc1 (stereo not given) ?
Vaccinia Venus: 3%; Vaccinia mCherry: -1%

What do the screens show for `CC1(C(=O)Nc2cnc3ccccc3c2)CCN1C(=O)CC(c1ccccc1)c1ccccc1` (stereo not given)?
Vaccinia Venus: -22%; Vaccinia mCherry: 8%

Results for COc1cc(C2C=C(C34CC5CC(CC(C5)C3)C4)NC(=S)N2)cc(OC)c1OC (stereo not given) ?
Vaccinia Venus: inconclusive; Vaccinia mCherry: -11%

How did CC1(C)NC(=O)N(CC(O)COc2ccccc2-c2ccccc2)C1=O (stereo not given) do in these assays?
Vaccinia Venus: -28%; Vaccinia mCherry: -23%

Results for CCOC(=O)c1c(S(=O)(=O)N2CCCC(C(=O)Nc3ccc(OCC)cc3)C2)c(C)n(C)c1C (stereo not given) ?
Vaccinia Venus: 3%; Vaccinia mCherry: -2%

Results for CCOC(=O)CNC(=O)CSc1nnc(COc2ccc(Cl)cc2)n1CC ?
Vaccinia Venus: -7%

How did CC(C)(C)C(=O)Nc1nc2c(c(=O)[nH]1)CCCC2 do in these assays?
Vaccinia Venus: -5%; Vaccinia mCherry: -4%

What do the screens show for `O=C(N/N=C/c1ccc(OCC2COCCO2)cc1)c1ccc(Br)cc1` (stereo not given)?
Vaccinia Venus: -21%; Vaccinia mCherry: -29%

What do the screens show for `COc1cccc(N2CCN(S(=O)(=O)c3ccc(-c4ccno4)cc3OC)CC2)c1`?
Vaccinia Venus: 0%; Vaccinia mCherry: -3%

What do the screens show for `COc1ccc2[nH]cc(CCNCc3ccc(Br)cc3)c2c1`?
Vaccinia Venus: -26%; Vaccinia mCherry: -29%

What do the screens show for `CCN(CC)CCN1C(=O)C2C(C(=O)Nc3cccc(SC)c3)C3C=CC2(O3)C1C(=O)NC1CCCC(C)C1C` (stereo not given)?
Vaccinia Venus: -16%; Vaccinia mCherry: -8%

How did O=C(NCCCn1ccnc1)C1CCCN(S(=O)(=O)c2ccc(F)cc2)C1 (stereo not given) do in these assays?
Vaccinia Venus: -10%; Vaccinia mCherry: 11%

How did COc1ccc(Br)cc1CNC(=O)CCC(=O)N1CCSc2ccccc21 do in these assays?
Vaccinia Venus: -8%&-18%; Vaccinia mCherry: -14%

What do the screens show for `N#C/C(=C/c1ccc(-c2ccc(Br)cc2)o1)C(=O)NC1CCCCC1`?
Vaccinia Venus: inconclusive; Vaccinia mCherry: inconclusive

What do the screens show for `COc1cc(C(Nc2ccc(S(=O)(=O)N3CCC(C)CC3)cc2)C(=O)NCC2CCCO2)cc(OC)c1OC` (stereo not given)?
Vaccinia Venus: -25%; Vaccinia mCherry: -16%

Results for COc1ccc(NS(=O)(=O)c2cccc(C(=O)NCc3ccccn3)c2)cc1 ?
Vaccinia Venus: -10%; Vaccinia mCherry: inactive

What do the screens show for `Cc1ccn(C(=O)c2ccc(NC(=O)CC(C)C)cc2)n1`?
Vaccinia Venus: 0%; Vaccinia mCherry: -1%

What do the screens show for `Cn1c(C(=O)NCc2ccccc2F)cc2cc(S(=O)(=O)N3CCCCC3)ccc21`?
Vaccinia Venus: -27%; Vaccinia mCherry: -21%

Results for COC(=O)CSc1ccc2nnc(CCNS(=O)(=O)c3ccccc3)n2n1 ?
Vaccinia Venus: -17%&-10%; Vaccinia mCherry: -14%

How did COc1ccc(OC)c(NC(=O)CSc2n[nH]c(-c3cccnc3)n2)c1 do in these assays?
Vaccinia Venus: -2%; Vaccinia mCherry: -9%

How did COc1ccc(C(=O)NCc2nnc(SCC(=O)Nc3ccc(C)cc3)n2-c2ccccc2)cc1 do in these assays?
Vaccinia Venus: -6%; Vaccinia mCherry: -15%

What do the screens show for `COc1cccc(NC(=O)C2(C)CCN2Cc2ccc(OC)c3ccccc23)c1` (stereo not given)?
Vaccinia Venus: 1%; Vaccinia mCherry: 7%

Results for CCNC(=S)NNC(=O)CSc1nc2ccccc2n1C ?
Vaccinia Venus: -25%; Vaccinia mCherry: -25%

Results for COC(=O)CC1(c2cccc3ccccc23)C(=O)c2ccccc2C1=O ?
Vaccinia Venus: 2.8µM*

How did CCN(Cc1ccccc1)S(=O)(=O)c1ccc2[nH]c3c(c2c1)CCCCC3 do in these assays?
Vaccinia Venus: 3%; Vaccinia mCherry: -13%

How did O=[N+]([O-])c1ccc(N2CCN(c3ccccc3Cl)CC2)cn1 do in these assays?
Vaccinia Venus: -19%; Vaccinia mCherry: -29%

Results for O=C(CSc1nc2ccccc2o1)Nc1ccc(N2CCOCC2)c(Cl)c1 ?
Vaccinia Venus: -13%; Vaccinia mCherry: -27%

Results for O=C(NC1CCCCC1)C(C1CC1)n1c(=O)c(-c2ccco2)nc2ccccc21 (stereo not given) ?
Vaccinia Venus: -4%; Vaccinia mCherry: -13%

What do the screens show for `CCOc1ccc(S(=O)(=O)N2CCN(Cc3ccc4c(c3)OCO4)CC2)cc1Cl`?
Vaccinia Venus: -4%; Vaccinia mCherry: -24%

What do the screens show for `Cc1c(NS(=O)(=O)c2ccc(C(C)(C)C)cc2)c(=O)n(-c2ccccc2)n1C`?
Vaccinia Venus: 2%; Vaccinia mCherry: 2%

Results for COC(=O)[C@]1(Cc2ccccc2)N[C@H](CN(C)S(=O)(=O)c2ccc(C)cc2)[C@@H]2C(=O)N(Cc3ccccc3)C(=O)[C@@H]21 ?
Vaccinia Venus: -10%; Vaccinia mCherry: inactive

What do the screens show for `Cc1nc(NCCc2ccc(F)cc2)c2nnn(Cc3ccccc3)c2n1`?
Vaccinia Venus: -9%; Vaccinia mCherry: -2%

Results for CCOc1ccc2oc(C(=O)OCC(=O)NC3CC3)c(C)c2c1 ?
Vaccinia Venus: -8%; Vaccinia mCherry: inactive

How did O=C1NC[C@H](CCCCN2CCN(CCc3ccccc3)C(=O)C2=O)N(CCC2CCCCC2)C1=O do in these assays?
Vaccinia Venus: 1%; Vaccinia mCherry: inactive

How did CCOCCCNC(=O)C(c1ccc(C)cc1)N(Cc1ccc2c(c1)OCO2)C(=O)c1ccccc1O (stereo not given) do in these assays?
Vaccinia Venus: -13%; Vaccinia mCherry: -10%

What do the screens show for `COc1ccc(Br)cc1CNC(=O)CN1C(=O)c2cccnc2Oc2ccc(C)cc21`?
Vaccinia Venus: inconclusive; Vaccinia mCherry: inactive

Results for CCOc1ccc(CNC(=O)c2cnc3sc(N4CCCCCC4)nn3c2=O)cc1OC ?
Vaccinia Venus: -10%; Vaccinia mCherry: -18%

What do the screens show for `O=C(/C=C/c1cccc(F)c1)OCC(=O)N1CCCC1`?
Vaccinia Venus: -26%; Vaccinia mCherry: -4%

What do the screens show for `O=C(Nc1ccc(S(=O)(=O)NCc2ccco2)cc1)c1ccc2ccccc2n1`?
Vaccinia Venus: -14%; Vaccinia mCherry: -24%

Results for O=C(O)CCC(=O)N1N=C(c2ccc(Br)cc2)CC1c1ccc(Br)cc1 (stereo not given) ?
Vaccinia Venus: -5%; Vaccinia mCherry: inactive

What do the screens show for `CCc1c(C)c2ccc(O)c(CN3CCN(c4ccc(OC)cc4)CC3)c2oc1=O`?
Vaccinia Venus: -18%; Vaccinia mCherry: -29%

Results for COc1ccc(C2(C(=O)Nc3cc(C)on3)CCOCC2)cc1 ?
Vaccinia Venus: -14%

How did Cn1c(=O)c2[nH]c(CCCc3nc4ccccc4[nH]3)nc2n(C)c1=O do in these assays?
Vaccinia Venus: -2%; Vaccinia mCherry: -9%

How did CC(C)(C)NC(=O)C1c2ccccc2OCC(=O)N1Cc1ccc2c(c1)OCO2 (stereo not given) do in these assays?
Vaccinia Venus: -1%; Vaccinia mCherry: 10%

What do the screens show for `CC(C)(C)SC(=O)C[C@@H]1NS(=O)(=O)OC2CCCCC21` (stereo not given in full)?
Vaccinia Venus: -25%; Vaccinia mCherry: inactive

Screens as filed in PubChem BioAssay.
